TRPML1 inh = blocks the human TRPML1 channel. Q9GZU1. 390,000 compounds, 0.02% hits. TRPML1-inducible cells, Ca2+ dye fluorescence, FDSS; active compounds read low; inhibition of EC80 agonist-evoked calcium signal. activity change, negative = inhibition, % (concentration not given with the values); in the data active means activity change below about -50%; inconclusive means about -30% to -50%; inactive means above about -30%;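 note: stimulus is agonist 54-4 at its EC80 concentration; % is set by controls: 0 for no effect and ±100 for the full control effect; the text of the record puts the active cut at -80%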
Target sequence (Q9GZU1 whole entry, looked up): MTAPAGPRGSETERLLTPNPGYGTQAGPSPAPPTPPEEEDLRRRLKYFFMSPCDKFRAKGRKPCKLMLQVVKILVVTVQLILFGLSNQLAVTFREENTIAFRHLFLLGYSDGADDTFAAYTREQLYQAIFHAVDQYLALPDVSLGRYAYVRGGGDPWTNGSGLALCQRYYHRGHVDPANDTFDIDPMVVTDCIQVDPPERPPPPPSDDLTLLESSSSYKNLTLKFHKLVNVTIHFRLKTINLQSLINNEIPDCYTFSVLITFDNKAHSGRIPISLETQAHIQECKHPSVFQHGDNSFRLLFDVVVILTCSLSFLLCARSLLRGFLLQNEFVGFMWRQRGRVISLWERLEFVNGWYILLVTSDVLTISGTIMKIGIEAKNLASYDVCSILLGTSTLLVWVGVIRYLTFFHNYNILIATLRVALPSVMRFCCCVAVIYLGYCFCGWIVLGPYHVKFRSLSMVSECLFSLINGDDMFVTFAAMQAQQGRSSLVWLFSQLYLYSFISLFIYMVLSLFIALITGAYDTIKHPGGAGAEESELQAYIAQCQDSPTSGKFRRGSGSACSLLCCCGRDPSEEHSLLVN
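TRPML1-DL cells, Tet-induced overnight (~16 h, 37 °C) at 1,500 cells/well, were loaded with Ca8 no-wash dye plus quencher for 45-90 min at room temperature. Compounds were pinned during FDSS kinetic reading; agonist 54-4 at EC80 (4 uM final) then added.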
Sfp PPTase inh = blocks B. subtilis Sfp PPTase activity; Biochemical Sfp PPTase activity, qHTS; Potency, µM, inactives show max response, negative = inhibition, hits mostly inhibitors; 310,000 compounds, 3.5% hits; active = well fitted inhibition curve with a large enough effect; inconclusive = small, poorly fitted or top-dose-only effect, or another doubt; inactive = no such curve, though single readings can be large or run the other way;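 note: the enzyme is Sfp with the accession as filed and its product quenches rhodamine fluorescence; potency is the fitted concentration of half-maximal effect; 0% = enzyme reaction without inhibitor and -100% = no enzyme wells; top concentration of the series not given in the record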
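Fluorescence-quenching assay: 15 nM Sfp-PPTase preincubated 15 min at room temperature with compound, then 5 uM rhodamine-CoA and 12.5 uM BHQ-2-labelled YbbR peptide added. Fluorescence (ex 525/em 598 nm) read at start and after 30 min; difference gives rate.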
TRPV1 PAM = enhances activation of the human vanilloid receptor TRPV1. Q8NER1. TRPV1-expressing cells, Fluo-8 calcium influx, capsaicin EC20 potentiation; host cell line not named in the record; control for the full effect not named in the record. potentiation, % at 8.33 µM. 320,000 compounds, 0.02% hits. AID 540277; active means potentiation above 80%; inconclusive means 30% to 80%; inactive means below 30%; note: 0% is about no effect
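Cells expressing TRPV1 were dye-loaded with Fluo-8 and read kinetically: 10 s baseline, 3 min after compound (agonist portion), then 2 min after EC20 capsaicin (allosteric enhancer portion). Calcium-bound dye fluorescence at 480/520 nm.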
ClpP mod = qHTS Assay for Activators of ClpP; purified B. subtilis ClpP, FRET peptide cleavage, 20 min; ATP-dependent Clp protease proteolytic subunit (Bacillus subtilis (strain 168)), P80244; Potency, µM (top dose mostly 57.5 µM), for the others: at the top dose activity change, negative = active; AID 651965, 2013; 340,000 compounds, 1.9% hits; active = well fitted falling curve with a large enough effect; inconclusive = small, poorly fitted or top-dose-only effect; inactive = no such curve, though single readings can be large or run the other way; note: potency is the fitted concentration of half-maximal effect; the source files actives as falling curves though it sought activators and does not explain the sign; nearly all actives have a fitted effect of over 65% in size; many hits overshoot -100%
Target sequence (P80244 whole entry, looked up): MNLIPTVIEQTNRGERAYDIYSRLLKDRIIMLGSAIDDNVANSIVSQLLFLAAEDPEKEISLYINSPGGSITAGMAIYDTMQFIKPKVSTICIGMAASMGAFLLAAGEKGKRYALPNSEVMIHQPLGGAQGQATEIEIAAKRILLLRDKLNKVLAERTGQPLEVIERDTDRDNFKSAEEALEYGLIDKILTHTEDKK
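Purified B. subtilis ClpP, 10 microg/mL final in Tris/HCl pH8 with KCl, BSA, glycerol and Tween-20, cleaved an Abz/nitrotyrosine-quenched decapeptide. Fluorescence (ex 320, em 430) was read at 0 and 20 min at room temperature. Delta was normalized to 5.8 microM ADEP and DMSO/no-enzyme controls.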
Menin MLL FP FL = displaces fluorescein MLL peptide from human menin; Fluorescence polarization, fluorescein-MLL peptide displacement from menin; FP activity change, % at 61.4 µM; 290,000 tested, under 10 active; AID 1766; inconclusive = falling polarisation curve, or a change in total fluorescence; inactive = total fluorescence flat and polarisation flat or rising; no compound was filed as active; the % refers to the polarisation; negative = inhibition;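 note: % of control where 0% means no effect; inhibitors lower the polarisation; unlabelled MLL peptide was the positive control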
gsp ag = agonists of gsp mutant (McCune-Albright syndrome); gsp mutant cells, cAMP HTRF, 30 min; control for the full effect not named in the record; Potency, µM (doses to about 76.9 µM), without a hit: at the top dose activation (cAMP increase), hits mostly activators; 340,000 compounds, 0.13% hits; AID 624287; active = well fitted activation curve with a large enough effect; inconclusive = small, poorly fitted or top-dose-only effect, or another doubt; inactive = no such curve, though single readings can be large or run the other way; cell line not stated here;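 note: phosphodiesterase inhibitor Ro 20-1724 added with compounds to block cAMP breakdown; potency is the fitted concentration of half-maximal effect; nearly all actives have a fitted effect of over 60% in size; about a fifth of the inactives were tested at one dose only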
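Cells stably selected in G418 were plated at 2000/well, grown 16-24 hr, then given compounds in DMSO with the PDE inhibitor […] (300 uM solution added) for 30 min at 37C; cAMP was read by HTRF.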
gsp antagonist = gsp mutant antagonism. Potency, µM (doses to about 76.9 µM), for inactives: at the top dose activity change, negative = inhibition, most hits filed as inhibitors. gsp-mutant cells, cAMP HTRF, 30 min; control for the full effect not named in the record. AID 624288. 340,000 compounds, 0.4% hits; active = falling curve of any shape with a large fitted effect; inconclusive = falling curve, mostly with a smaller effect; inactive = flat or rising curve; cell line not stated here;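 note: intracellular cAMP measured with PDE inhibitor Ro 20-1724 present during compound exposure; potency is the fitted concentration of half-maximal effect; % is set by controls: 0 for no effect and ±100 for the full control effect; nearly all actives have a fitted effect of over 65% in size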
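HTRF cAMP read-out (cAMP-d2 plus anti-cAMP antibody-K in lysis buffer, 30 min RT). Before lysis, cells are exposed to compounds with […] for 30 min at 37C in DPBS containing Ca/Mg, BSA and Tween 20.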
An asterisk follows results filed as active; ? = inconclusive; . = no result given; [ ] = remark or other dose. Random draw from the library. Share with any hit: about 4.9%.

SMILES	TRPML1 inh	Sfp PPTase inh	TRPV1 PAM	ClpP mod	Menin MLL FP FL	gsp ag	gsp antagonist
CCOC(=O)c1sc2nc(SCC(=O)N(CC)CC)n(CCCN3CCCC3=O)c(=O)c2c1C	3	?	24	-4.7%	1.5	1%	-20%
O=C(O)CNC(=O)c1ccc(N2CCOCC2)cc1[N+](=O)[O-]	2	22%	11	.	1.4	-17%[15.4 µM]	.
COc1ccc(C(=O)OCCc2ccc(O)cc2)cc1	10	-7%	5	-4.2%	6.2	-1%	3%
CN(c1ccc(O)cc1)c1nc(-c2ccccc2)cs1	50	-11%	15	1.4%	.	-20%	?
COC(=O)C1CCN(C(=O)CN2C(=O)NC(CC(C)C)C2=O)CC1 (stereo not given)	32	.	.	0.1%	.	4%	12%
CCC(C(=O)NCCCN1CC(C)CC(C)C1)n1nc(C)c2sc3ccccc3c2c1=O (stereo not given)	21	7%	-8	4.0%	.	-12%	0%
Cc1ccc(S(=O)(=O)N2CCc3ccccc3CC2)cc1	-7	.	.	.	.	-10%	-4%
C=CCN(c1ccc(OC)cc1)S(=O)(=O)c1ccc(Cl)c(C(=O)OCC(=O)c2c(N)n(C)c(=O)n(C)c2=O)c1	20	.	.	1.0%	.	-16%	?
O=C(NCc1ccccn1)C1CCN(S(=O)(=O)N2CCCCC2)CC1	-6	14%	-8	-3.0%	-4.9	-84%[inhibitor]	-2%
N#CC1(NC(=O)COC(=O)c2nccnc2N)CCCCC1	-2	.	-6	49%	.	-22%	-2%
CCOC(=O)C1CCCN(C(=O)c2ccc(C)c(NC(=O)C3=C(C)OCCS3)c2)C1 (stereo not given)	-2	11%	5	0.5%	.	?	13%
Cc1ccc(Cl)cc1N1CCN(S(C)(=O)=O)CC1	12	1%	2	-1.7%	2.1	3%	-12%
CC(=O)Nc1ccc(S(=O)(=O)N2CCN(C(=O)c3ncoc3-c3ccccc3F)CC2)cc1	-6	10%	-2	.	-5.0	-6%[15.4 µM]	5%
CCN1/C(=C2\OC(=S)N(C)C2=O)Sc2ccccc21	3	2%	-2	1.6%	5.8	-17%	12%
Cc1c(CCOC(=O)c2ccc(Cl)cc2Cl)sc[n+]1CC(=O)c1ccccc1	-2	.	.	1.3%	.	-9%	17%
Cc1coc2cc3oc(=O)c(CCC(=O)NCCCn4ccnc4)c(C)c3cc12	.	15%	6	4.5%	2.5	.	-16%
O=C(CN1C(=O)NC2(CCOc3ccccc32)C1=O)NCCc1ccccc1 (stereo not given)	-17	.	.	-0.7%	.	-3%	0%
Cc1cc(NC(=O)CSc2nnc(C(F)(F)F)n2C)no1	-8	.	.	-6.9%	.	5%	14%
O=C(CN1CCCCCC1)Nc1ccc(Cl)cn1	32	-5%	-5	.	-2.0	-6%	10%
CC(C)(C)OC(=O)C1C(=O)CC(C)(O)C(C(=O)OC(C)(C)C)C1c1ccco1 (stereo not given)	47	-7%	3	-2.2%	3.5	1%	-6%
CCOc1ccc(-c2nc(=S)[nH][nH]2)cc1	41	?	1	16%	-1.0	?	-4%[15.4 µM]
CC(NC(=O)NCC1CCCO1)(C(F)(F)F)C(F)(F)F (stereo not given)	-2	18%	-13	-1.0%	0.5	-10%	7%
C=CCN(CC=C)c1cnn(-c2nc3ccccc3[nH]2)c(=O)c1Cl	27	-10%	7	-15%	5.2	-9%	-31%
Cc1ccc(CNC(=O)COC(=O)C2CC2)cc1	3	.	7	0.1%	.	-13%	4%
O=C1NC(=S)N/C1=C/c1cccc([N+](=O)[O-])c1O	3	-17%	3	0.7%	28	-39%	8%
CC(=O)Nc1ccccc1NC(=O)c1ccc(C)c(C)c1	-6	15%	-1	0.0%	-5.7	21%	1%
COc1ccccc1CN(C)C[C@H]1OCc2cnnn2CCCC(=O)N([C@@H](C)CO)C[C@@H]1C	18	.	.	0.4%	.	?	.
CS(=O)(=O)N1CCN(c2ccc([N+](=O)[O-])c(NCCN3CCOCC3)c2)CC1	2	18%	2	-12%	0.9	29%	-8%
CCOc1ccc(OCCC(=O)N(CCOC)c2c(N)n(Cc3ccccc3)c(=O)[nH]c2=O)cc1	14	.	.	-2.1%	.	4%	-2%
Cc1cc(NC(=O)COC(=O)Cn2[nH]c(=O)c3ccccc3c2=O)c([N+](=O)[O-])cc1C	11	.	.	17%	.	12%	-1%
COc1ccc(-n2nnc3c(SCC(=O)Nc4ccccc4F)ncnc32)cc1	-1	6%	12	?	3.4	18%[15.4 µM]	-8%
CCCCSc1nc2sc3c(c2c(=O)n1-c1ccc(OC)cc1)CCN(C)C3	6	-9%	1	.	11	?	-10%
CCCS(=O)(=O)c1nc(S(=O)(=O)c2ccc(C)cc2)c(N2CCc3ccccc3C2)s1	19	-9%	5	-1.8%	-2.1	22%	15%
COc1cccc(N2CC(NC(=O)c3ccc4ccccc4c3)CC2=O)c1 (stereo not given)	0	.	-1	.	.	1%[15.4 µM]	-8%
CN(c1cccc(NC(=O)CN(c2ccc(F)cc2)S(C)(=O)=O)c1)S(C)(=O)=O	-3	10%	4	-1.1%	0.5	4%[15.4 µM]	-9%
CC(C)[C@H](N)c1nnc(SCC(=O)c2ccc(Cl)cc2)o1	-14	-15%	15	-3.2%	0.9	7%	-1%
O=C(COC(=O)c1ccc(Cl)c(S(=O)(=O)N2CCCCC2)c1)NCc1ccco1	10	0%	-20	1.3%	-1.7	12%	0%
Nc1nc(SC2c3cccc4cccc(c34)C2NS(=O)(=O)c2ccccc2)n[nH]1 (stereo not given)	-26	3%	?	0.5%	8.7	-51%[inhibitor]	5%
Cc1ccc(-n2c(-c3cccnc3)n[nH]c2=S)c(C)c1	-20	6%	17	-4.3%	0.1	8%	?
CCOCCc1nnc(NC(=O)C2CC(=O)N(CCc3ccc(F)cc3)C2)s1 (stereo not given)	29	-11%	1	.	-2.5	-18%	-2%
CCNC(=S)Nc1ccc(C)c(S(=O)(=O)Nc2ccccc2OC)c1	-11	3%	-2	.	0.3	-4%[15.4 µM]	-5%
Cc1ccc2nc(N3CCN(C(=O)c4ccco4)CC3)sc2c1	6	.	-34	.	.	42%[15.4 µM]	-3%
Cc1nnsc1NC(=O)OCC(C)C	-16	9%	3	-0.3%	2.0	-15%	-9%[15.4 µM]
CC(C)N1CC2(CC(c3ccc(Cl)cc3Cl)=NO2)CN1C(=O)c1ccc(C(C)(C)C)cc1 (stereo not given)	17	.	.	-1.5%	.	-14%	.
CCOc1ccc(C(=O)NCCC(=O)N2CCC3(CC2)NCCc2[nH]cnc23)cc1OCC	11	13%	5	-4.1%	.	1%	11%
O=C(Nc1ccc2nc(-c3ccco3)c(-c3ccco3)nc2c1)N1CCN(c2ccccn2)CC1	1	20µM*	13	-11%	-8.1	-14%	-19%
O=C(CSCc1c(Cl)cccc1Cl)NN1C(=O)c2ccccc2C1=O	12	-1%	-1	1.7%	0.8	5%	-4%
COc1cccc(CN(C)C(=O)c2ccc(NS(=O)(=O)c3ccc(F)cc3)cc2)c1OC	26	.	14	1.1%	.	-2%	-31%
CC1(C(=O)c2ccccc2)C2c3c(ccc4ccccc34)OC(=O)C21C(=O)N1CCOCC1 (stereo not given)	12	5%	-30	0.5%	3.8	24%	-14%
COc1ccc(C(C#N)(CC(=O)O)c2cnccn2)cc1OC (stereo not given)	-15	.	-40	-27%	.	.	1%
COc1ccc(CCNC(=O)COC(=O)CCC(=O)c2cccs2)cc1OC	5	.	.	.	.	?	5%
N#Cc1c(N)c(C(=O)c2ccc(Br)cc2)n2c1CCC2	24	-4%	4	-0.6%	2.3	17%	1%[15.4 µM]
Cc1ccc2nc(S(=O)(=O)O)[nH]c2c1	6	17%	0	-2.7%	-0.7	10%	4%
O=C(NCCc1ccccc1)c1n[nH]c2ccccc12	10	-2%	-20	-13%	-0.1	?	3%
CCc1nn(CC(=O)NCCCN2CCOCC2)c(=O)c2cc3c(OC)cccc3n12	1	.	.	4.5%	.	?	16%
Brc1cccc(-c2cnco2)c1	-9	2%	?	-0.1%	-1.0	-1%	3%

Carrying on:
SMILES	TRPML1 inh	Sfp PPTase inh	TRPV1 PAM	ClpP mod	Menin MLL FP FL	gsp ag	gsp antagonist
COc1cccc(CN2CC(O)=C(c3nc(-c4ccc(Cl)cc4)cs3)C2=N)c1	-17	-13%	-16	0.4%	10	-35%[inhibitor]	3%
CCSc1nnnn1-c1ccccc1	3	-4%	6	-0.3%	3.8	8%	5%
COc1ccccc1CNC(=O)c1ccc(CS(=O)Cc2cccc(Cl)c2)o1 (stereo not given)	37	10%	12	-0.6%	.	2%	-5%
COC(=O)c1cn(-c2ccccc2)nc1C(=O)OC	2	12%	3	-2.8%	-0.9	-6%	15%
Cc1c(/C=N/NC(N)=O)c2ccccn2c1C(=O)c1ccc(F)cc1	8	-13%	8	-2.5%	6.9	-8%	8%
CCC(=O)Nc1nnc(SCC(=O)c2ccc3c(c2)Cc2ccccc2-3)s1	-13	56µM*	-3	-0.8%	2.2	?	4%
COC(=O)c1sc(NC(=O)c2ccc(OC)cc2OC)nc1C	5	.	.	-2.3%	.	15%	15%
N#CC1=C(N)Oc2cc(Nc3ccccc3)ccc2C1c1ccncc1 (stereo not given)	-15	-28%	?	-2.1%	24	-24%	-4%
O=C(O)C(O)c1ccco1 (stereo not given)	-4	45µM*	-1	2.5%	3.8	?	6%
